Source: PubChem
nsP2pro primary: CHIKV nsP2 protease inhibition, primary qHTS; Q8JUX6; FRET peptide cleavage, nsP2pro, fluorescence 1 h; Potency, µM (top dose mostly 24.9 µM), inactives show top-dose activity change, negative = inhibition, hits mostly inhibitors; 1.1% of 31,000 active; active means well fitted inhibition curve with a large enough effect; inconclusive means small, poorly fitted or top-dose-only effect; inactive means no such curve, though single readings can be large or run the other way; further: nearly all actives have a fitted effect of over 60% in size; a reference inhibitor and vehicle were the controls
Numbers without * were called inactive; i = inactive; ? = inconclusive; & = joins results of further samples; [ ] = another dose, or the depositor's remark. On the % scale 0 is the no-effect control and ±100 the full control effect; potency means the concentration at half of the fitted maximal effect.

Start of the listing, in advance, 2 compounds:
| compound | nsP2pro primary |
| --- | --- |
| COCC[C@]1(O)CCN(C(=O)Nc2ccc(F)c(C(F)(F)F)c2)C[C@H]1C | -7% |
| CCCCN1CCCC[C@H]1C(=O)Nc1c(C)cccc1C | -15%&-9%&6% |

The list itself, previewed entries included:
| compound | nsP2pro primary |
| --- | --- |
| COCC[C@]1(O)CCN(C(=O)Nc2ccc(F)c(C(F)(F)F)c2)C[C@H]1C | -7% |
| CCCCN1CCCC[C@H]1C(=O)Nc1c(C)cccc1C | -15%&-9%&6% |
| O=S(=O)(c1ccc2c(c1)OCCO2)N1CCN(S(=O)(=O)c2ccccn2)CC1 | 0% |
| CC1(C)CC[C@]2(C(=O)O)[C@H](O)C[C@]3(C)C(=CCC4[C@@]5(C)CC[C@H](O[C@@H]6O[C@H](CO[C@@H]7OC[C@H](O)[C@H](O)[C@H]7O[C@@H]7OC[C@H](O)[C@H](O)[C@H]7O)[C@@H](O)[C@H](O)[C@H]6O)C(C)(C)C5CC[C@]43C)[C@@H]2C1 (some centres not stated) | 8%[5.1 µM] |
| CC1(C)CCC(C)(C)c2cc([C@@H](O)C(=O)Nc3ccc(C(=O)O)cc3F)ccc21 | -16% |
| O=C1CCCC2=C1C(c1[nH]ncc1Cl)N=C(Nc1nccs1)N2 (configuration not stated) | -3% |
| COc1cccc(Cn2c(SCc3ccc(C(=O)N4CCC(C)CC4)cc3)nc3ccncc32)c1 | 29% |
| CCCCCN1C(C(=O)c2ccccc2)=C(NC(=O)c2ccc(C)cc2)c2ccccc2S1(=O)=O | -20% |
| COc1ccc2nc(-c3ccc(Cl)cc3)sc2c1 | 4% |
| COC(=O)CC[C@H](NC(=O)[C@H](CC(C)C)NC(=O)OCc1ccccc1)C(=O)N[C@@H](Cc1cnc[nH]1)C(=O)N[C@@H](CC(=O)OC)C(=O)CF | -3%[5.1 µM] |
| O=C(C1CCCC1)N1CCC(C(=O)N2CCC(c3nc4ccncc4[nH]3)C2)CC1 (configuration not stated) | i |
| CC(=O)Oc1ccccc1C(=O)O | -8%&-3%&3% |
| COc1c2c(c(C)c3c1C(=O)OC3)OC1(C)CC(O)C3(O)C(C)(C)OC(=O)CCC3(C)C1C2 (configuration not stated) | -17%[10 µM] |
| CC(=O)O[C@H]1C[C@@H]2CC[C@@H]3[C@H](CC[C@@]4(C)[C@H]3C[C@H](N3CC[N+](C)(C)CC3)[C@@H]4OC(C)=O)[C@@]2(C)C[C@@H]1N1CC[N+](C)(C)CC1 | 4% |
| CC(C)[C@@H](CN1CC[C@@](C)(c2cccc(O)c2)[C@@H](C)C1)NC(=O)[C@H]1Cc2ccc(O)cc2CN1 | 17% |
| FC(F)(F)c1cc(-c2ncn(/C=C\c3nnco3)n2)cc(C(F)(F)F)c1 | -8% |
| Cc1cc(C)c(/C=C/c2onc(C)c2S(=O)(=O)N2CCC(C(=O)NCC(C)c3ccccc3)CC2)c(C)c1 (configuration not stated) | -7% |
| Cc1ccc(-c2cc(C(=O)O)n(C)c2)cc1 | 2% |
| CC1(C)C2CCC1(C)C(O)C2 (configuration not stated) | -3% |
| COc1ccc(NS(=O)(=O)c2ccc(C)cc2)cc1C(=O)Nc1nc(-c2ccccc2)cs1 | -10% |

(more compounds)
| compound | nsP2pro primary |
| --- | --- |
| Cc1ccc(S(=O)(=O)c2cn(Cc3cccc(F)c3)c3cc(N4CCCC4)c(F)cc3c2=O)cc1 | -15% |
| CN([C@H]1c2cc(OCCCC(F)(F)F)ccc2OC(C)(C)[C@@H]1O)S(C)(=O)=O | -11% |
| COc1ccc(-c2nc3scc(CCNS(=O)(=O)c4ccc5c(c4)OCCO5)n3n2)cc1 | 1% |
| CCCCCN1CCC(C(=O)Nc2ccc([S+](=O)([O-])Nc3nccs3)cc2)CC1 | -3% |
| Cc1noc(C)c1-c1cc2c(cc(C)n2CCN(C)C)c(Nc2ccncn2)n1 | i |
| O=C(COC(=O)C(Cc1c[nH]c2ccccc12)NC(=O)c1ccc(Cl)cc1)c1ccc(Cl)cc1 (configuration not stated) | -5% |
| CC(=O)c1ccc(N2CCN(c3ncnc4c3c(-c3ccccc3)cn4-c3cccc(C)c3)CC2)cc1 | -16% |
| O=C(CCc1cc2n(n1)CCCNC2)N1CCCC1c1nc2ccccc2[nH]1 (configuration not stated) | 12% |
| Cc1nc2ccn(Cc3ccccc3)c(=O)c2cc1C(=O)Nc1ccc(F)cc1Cl | -23% |
| COc1cccc(CNC(=O)Nc2cc(C(=O)NCc3cccc(F)c3)ccc2N2CCCC2)c1 | -14% |
| CCCCNc1cc(C(=O)O)cc(S(N)(=O)=O)c1Oc1ccccc1 | 3% |
| C=C(C)[C@@H]1CC[C@]2(CO)CC[C@]3(C)[C@H](CC[C@@H]4[C@@]5(C)CC[C@H](O)C(C)(C)[C@@H]5CC[C@]43C)[C@@H]12 | ? |
| CC1=Nc2cc(C(=O)NCCCN(C)C)ccc2Sc2ccc(F)cc21 | i |
| CC1CCN(S(=O)(=O)c2ccc3c(c2)CCC(=O)N3CC(=O)Nc2cccc(C#N)c2)CC1 | 2% |
| COc1ccc2c(c1)C(C(=O)Nc1ccc(C)c([S+](=O)([O-])N3CCOCC3)c1)=CC(C)(C)CO2 | 1% |
| O=C(Nc1ccc(Oc2ccccc2)cc1)C1CCN(S(=O)(=O)c2ccccc2)CC1 | -13% |
| COCCCN1CC2(CCC1=O)CCN(C(=O)Nc1ccccc1F)CC2 | -10% |
| CCCS(=O)(=O)N1C[C@@H](COC)[C@H](c2nc(C)no2)C1 | -6% |
| CCn1c(C(=O)N2CCC(C(=O)NCCc3ccccc3)CC2)cc2sccc21 | -15% |
| O=C(COc1ccccc1CNc1ccc(F)cc1)Nc1ccc(F)cc1 | -1% |

Next part.
| compound | nsP2pro primary |
| --- | --- |
| C=C[C@H]1CN2CC[C@H]1C[C@H]2[C@H](O)c1ccnc2ccccc12 | 18%&-5% |
| COc1ccc(-n2c(/C=C/c3cccc4ccccc34)nc3ccccc3c2=O)cc1Cl | -16% |
| Cc1cccc(CCNC(=O)CCS(=O)(=O)c2cc3c(cc2C)NC(=O)CO3)c1 | -15% |
| C/C=C(/C)C(=O)O[C@H]1C(C)=C2[C@H]([C@@H]1OC(=O)CCCCCCC)[C@@](C)(OC(C)=O)C[C@H](OC(=O)CCC)[C@@]1(O)[C@H]2OC(=O)[C@@]1(C)O | 5% |
| Clc1ccccc1Cc1cn2cc(-c3ccccc3)nc2s1 | -15% |
| O=C(c1ccccc1)N1CCCC(C(=O)N2CCC(c3nc4ccncc4[nH]3)C2)C1 (configuration not stated) | i |
| O[C@@H]1C[C@@H](c2nnc3n2CCN(C2CCCCC2)C3)N(Cc2cccnc2)C1 | -22% |
| NC(=O)c1cc([N+](=O)[O-])cc([N+](=O)[O-])c1 | -7% |
| CC(C)c1ccccc1-c1ncc(F)c(NCc2ccc(-n3ccnn3)cc2)n1 | i |
| CCC(C)/C=C(C)/C=C/C1=CC2=C(Cl)C(=O)C(C)(O)C(=O)C2(O)C(OC)O1 (configuration not stated) | ? |
| N#Cc1nc(Nc2cccc(-c3ccccc3)c2)nc(NC2CCCC2)n1 | i |
| Cc1ccc(CNC(=O)c2cc(S(=O)(=O)N3CCCC(C)C3)cn2C)cc1 (configuration not stated) | -17% |
| CCc1ccc(C2N3CC4(C)CN2CC(c2ccccc2)(C3)C4=O)cc1 (configuration not stated) | -18% |
| Oc1ccc2c3c1O[C@H]1c4[nH]c5c(N=C=S)cccc5c4C[C@@]4(O)[C@@H](C2)N(CC2CC2)CC[C@]314 | 0% |
| CC(C)NC(=O)CC(=O)Nc1ccc2nc3n(c(=O)c2c1)CCCCC3 | 1% |
| Cn1cc(-c2cnn3c(N)c(Br)c([C@@H]4CCCNC4)nc23)cn1 | 16%&68% |
| O=C(Cn1c(=O)n(-c2ccc(F)cc2)c(=O)c2sccc21)Nc1cccc(C(F)(F)F)c1 | 8% |
| Cc1cccc(S(=O)(=O)N2[C@@H]3CC[C@H]2CC(NC(=O)c2ccncc2)C3)c1 (some centres not stated) | 3% |
| O=C(CCNc1c(-c2cccc(F)c2)nc2cnccn12)NCc1ccc(Cl)cc1 | 4% |
| C[C@@H]1O[C@@H](O[C@H]2[C@H](O)[C@@H](O[C@@H]3O[C@H](CO)[C@@H](O)[C@H](O[C@@H]4O[C@H](CO)[C@@H](O)[C@H](O)[C@H]4O)[C@H]3O)[C@H](O[C@H]3CC[C@@]4(C)C(=CC[C@@H]5C4CC[C@@]4(C)C5C[C@@H]5OC6(CC[C@@](C)(CO[C@@H]7O[C@H](CO)[C@@H](O)[C@H](O)[C@H]7O)O6)[C@@H](C)[C@@H]54)C3)O[C@@H]2CO)[C@H](O)[C@H](O)[C@H]1O (some centres not stated) | 17%[5.1 µM] |

Some of the entries so far, with each value named.
N#Cc1nc(Nc2cccc(-c3ccccc3)c2)nc(NC2CCCC2)n1
  nsP2pro primary: i

Cc1ccc(CNC(=O)c2cc(S(=O)(=O)N3CCCC(C)C3)cn2C)cc1 (configuration not stated)
  nsP2pro primary: -17%

CCc1ccc(C2N3CC4(C)CN2CC(c2ccccc2)(C3)C4=O)cc1 (configuration not stated)
  nsP2pro primary: -18%

Oc1ccc2c3c1O[C@H]1c4[nH]c5c(N=C=S)cccc5c4C[C@@]4(O)[C@@H](C2)N(CC2CC2)CC[C@]314
  nsP2pro primary: 0%

Continuation:
| compound | nsP2pro primary |
| --- | --- |
| COc1ccc(N(CC(=O)NCCc2ccccc2)S(=O)(=O)c2c(C)nn(C)c2C)cc1 | -20% |
| CCOC(=O)c1cc2c(=O)n3ccccc3nc2n(C(C)C)c1=NC(=O)C(C)(C)Oc1ccc(Cl)cc1 | -17% |
| CCN(CC)C(=O)c1sc2c(c1C)c(=O)n(Cc1ccccc1)c(=O)n2Cc1cc(C)ccc1C | -14% |
| CN(Cc1cccn1C)C(=O)c1ccccc1F | ? |
| COC(=O)c1ccc(NCC2=CC(C)(C)COc3ccc(OC)cc32)cc1 | i |
| Nc1nonc1-c1nc2ccccc2n1Cc1c(Cl)cccc1Cl | -5% |
| Cc1cc(C)nc(NC(=NCCc2c[nH]c3ccc(Cl)cc23)NC(=O)c2ccccc2C)n1 | -28% |
| NCCNCCNCCNCCN | 169%[activator][5.1 µM] |
| COc1cccc(C2=Nn3c(nnc3-c3ccc(OC)c(OC)c3)SC2)c1 | 2% |
| Cc1ccccc1NC(=O)Cn1nc(-c2ccc(F)cc2)c2cnc3ccccc3c21 | -23% |
| CCN(CC)C(=O)c1cc2c(s1)CCC(C(=O)O)C2 (configuration not stated) | 2% |
| CN(Cc1ccccc1)Cc1cn(C[C@H]2O[C@@H](CC(=O)NCc3ccc(F)cc3)[C@H](O)[C@@H]2O)nn1 | -8% |
| O=C(NC1CCN(Cc2cccc(-c3cccs3)c2)CC1)c1cccc(Cl)c1 | i |
| Nc1c(C(=O)Nc2ccc(Br)cc2F)sc2nc3c(cc12)N1CCC3CC1 | 56%[activator] |
| COc1ccc(-c2c(-c3ccc(O)cc3O)n[nH]c2C)cc1 | i |
| COc1ccc(NC(=O)C(Cc2ccccc2)NS(=O)(=O)c2ccc3c(c2)oc(=O)n3C)c(OC)c1 (configuration not stated) | -20% |
| CCc1ccccc1NC(=O)CN1C(=O)CCSc2ccc(S(=O)(=O)N3CCCC3)cc21 | -11% |
| CC1OC(OC2C(C)OC(OC3C(O)C(CO)OC(O[C@H]4CC[C@@]5(C)C(CC[C@]6(C)C5CC=C5C7[C@@H](C)[C@H](C)CC[C@]7(C(=O)O)CC[C@]56C(=O)O)C4(C)C)C3O)C(O)C2O)C(O)C(O)C1O (some centres not stated) | -3%[5.1 µM] |
| c1cncc(CN2CCOC[C@H]3CCNC[C@H]32)c1 | -12% |
| O=C(Cc1ccc(Cl)c(Cl)c1)Nc1ccc(S(=O)(=O)Nc2cccc(C(=O)O)c2)cc1 | i |

The listing continues.
| compound | nsP2pro primary |
| --- | --- |
| NC(=O)CN1CCCC1=O | -1% |
| COc1cccc(C(=O)NC2CCN(c3ccnc4ccnn34)C2)c1 (configuration not stated) | 4%[39.2 µM] |
| NC(=O)C(O[C@@H]1O[C@H](CO[C@@H]2O[C@H](CO)[C@@H](O)[C@H](O)[C@H]2O)[C@@H](O)[C@H](O)[C@H]1O)c1ccccc1 (some centres not stated) | -11%[10 µM] |
| COc1ccc(CN2C(=O)COC[C@H]2C(=O)N2CCc3ccccc3C2)c(OC)c1 | -2% |
| Cc1cc(O)c(C(c2ccccc2)N2CCN(c3ccccc3F)CC2)c(=O)n1Cc1ccco1 (configuration not stated) | ? |
| O=C(Nc1ccc(F)c(Cl)c1)C1=NO[C@@H]2CN(CCc3ccccc3)C[C@H]12 | 0%[39.2 µM] |
| Cc1cc(-c2nc3ncccc3o2)ccc1NC(=O)COc1ccc(C(C)(C)C)cc1 | 1% |
| CC(C)OCCCNC(=O)C1CCCN(S(=O)(=O)c2cn(C)cn2)CCC(=O)NCC1 (configuration not stated) | 4% |
| C[C@H](CSC(=O)c1ccccc1)C(=O)N1C[C@@H](Sc2ccccc2)C[C@H]1C(=O)O | -8% |
| CC(=O)NC1CC2(CCN(Cc3ccc(O)cc3)CC2)c2ccccc21 (configuration not stated) | 2% |
| O=C1c2ccccc2C(=O)N1c1cc(=O)c2ccccc2[nH]1 | -3% |
| CC(C)(Oc1nn(CCN2CCOCC2)c2ccccc12)C(=O)NCc1ccncc1 | -17%[39.2 µM] |
| CN(Cc1ccccc1)C(=O)CC1CCN(C(=O)Cc2ccccc2)C1 (configuration not stated) | 6% |
| CCOc1ccc(-n2c(SCC(=O)Nc3cc(C)on3)nc3c([nH]c4ccccc43)c2=O)cc1 | -22% |
| COc1ccc(N2CCN(CCCNC(=O)Cn3c(-c4cccs4)cc4ccccc43)CC2)cc1 | -11% |
| CCCNC(=O)CN1CCN(c2ccc(NC(=O)c3ccc(OC)cc3)cc2C(=O)O)CC1 | 4.5µM* |
| Nc1ccccc1OC1=NS(=O)(=O)c2ccccc21 | 10µM* |
| O=C(O)c1ccc2c(c1)C(=O)N([C@H](Cc1c3ccccc3cc3ccccc13)C(=O)O)C2=O | i |
| CCOc1ccc(CCNC(=O)CSc2nc3ccccc3nc2Cc2ccc(C)cc2)cc1OCC | ? |

This is a subset, so the mix of outcomes need not match the whole.
